Screens as filed in PubChem BioAssay.
Choline anaer gr – blocks anaerobic gram-negative growth on choline. Gram-negative bacterium anaerobic choline minimal medium, absorbance growth; active compounds read low; many inactives read as strong as hits in the columns shown. calls only. 55,000 compounds, 0.2% hits;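 active means growth z-score on choline under -2 at 7 or 20 h with little or no fall on glycerol, limits in tiers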;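 further: stock transfer was 300 nL into about 50 µL; the organism is E. coli; final concentration not given here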
Choline anaer gr early – recorded beside Choline anaer gr, whose call it bears; z-score; measured here: choline growth z-score, timepoint 1;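 score of optical density at 7 h as mean of two plates; lower means less growth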
* marks the source's active call; other numbers are inactive results; & = joins results of further samples.

Screening CCc1ccc(C2=Nc3ccccc3N(CC(=O)NC(C)CCc3ccccc3)C(=O)C2)cc1 (stereo not given) returned Choline anaer gr inactive and Choline anaer gr early 1.57.
Screening CCc1csc(C2CCN(C(=O)NC(C)C)CC2)n1 returned Choline anaer gr inactive and Choline anaer gr early 1.21.
Screening Cc1nnc(-c2c(C)[nH]c(C)c2S(=O)(=O)NC2CCCC2)o1 returned Choline anaer gr inactive and Choline anaer gr early 0.02.
`CC1Oc2ccc(NC(=O)c3csnn3)cc2NC1=O` (stereo not given) gave Choline anaer gr inactive and Choline anaer gr early -1.21.
`O=c1[nH]c(SCCN2CCOCC2)nc(O)c1-c1ccccc1` gave Choline anaer gr inactive and Choline anaer gr early -0.35.
CC(=O)N1c2ccc(S(=O)(=O)N3CCOCC3)cc2CC1C(=O)N1CCOCC1 (stereo not given) was read as Choline anaer gr inactive and Choline anaer gr early 0.1.
Screening Cn1c(=O)c2c(-c3ccc(Cl)cc3)n(C3CCCCC3)cc2n(C)c1=O returned Choline anaer gr inactive and Choline anaer gr early 0.37.
For Cc1nc(-c2cc(S(=O)(=O)NCCc3ccccc3)c(C)s2)sc1C the results were Choline anaer gr inactive and Choline anaer gr early -0.28.
`Cc1ccc(-c2noc(CCC(=O)NC3CCCC3)n2)c(=O)[nH]1` gave Choline anaer gr inactive and Choline anaer gr early 0.35.
CN(C/C=C/c1ccccc1)Cc1cccc2ccccc12 was read as Choline anaer gr inactive and Choline anaer gr early -0.32.
For Cc1nc(Nc2ccc(NC(=O)c3ccc(C(C)(C)C)cc3)cc2)cc(N(C)C)n1 the results were Choline anaer gr inactive and Choline anaer gr early 0.2.
`O=C(C1CC1)N1CCN(S(=O)(=O)c2cc(-c3noc(C4CCC4)n3)cs2)CC1` gave Choline anaer gr inactive and Choline anaer gr early -0.12.

Looked up by structure from the entries so far:
Screening Cn1c(=O)c2c(-c3ccc(Cl)cc3)n(C3CCCCC3)cc2n(C)c1=O returned Choline anaer gr inactive and Choline anaer gr early 0.37.
For Cc1nc(-c2cc(S(=O)(=O)NCCc3ccccc3)c(C)s2)sc1C the results were Choline anaer gr inactive and Choline anaer gr early -0.28.
CN(C/C=C/c1ccccc1)Cc1cccc2ccccc12 was read as Choline anaer gr inactive and Choline anaer gr early -0.32.
Screening CCc1csc(C2CCN(C(=O)NC(C)C)CC2)n1 returned Choline anaer gr inactive and Choline anaer gr early 1.21.
CC(=O)N1c2ccc(S(=O)(=O)N3CCOCC3)cc2CC1C(=O)N1CCOCC1 (stereo not given) was read as Choline anaer gr inactive and Choline anaer gr early 0.1.

Additional records follow.
For Cc1nc(C)c(-c2nc(-c3cccc(NC(=O)NC(C)C)c3)no2)s1 the results were Choline anaer gr inactive and Choline anaer gr early 2.68.
CC1(C(=O)O)CC(=O)N=C2C=CC(Cl)=CN21 (stereo not given) was read as Choline anaer gr inactive and Choline anaer gr early -0.92.
C=C(CC)C(=O)c1ccc(OCC(=O)O)c(Cl)c1Cl was read as Choline anaer gr inactive and Choline anaer gr early -0.19&-0.24.
`O=c1c2cc3c(cc2nc(SCc2nc(-c4ccc(Cl)cc4)no2)n1C1CCCC1)OCO3` gave Choline anaer gr inactive and Choline anaer gr early 0.04.
`O=C(CSc1nnc(-c2cc3ccccc3o2)n1-c1ccccc1)Nc1ccccc1O` gave Choline anaer gr inactive and Choline anaer gr early -0.86.
`CCCn1c(=O)c2ccc(C(=O)NC(C)C)cc2n2c(=O)n(CC(=O)NCc3ccc(C)cc3)nc12` gave Choline anaer gr inactive and Choline anaer gr early 0.87.
Screening Cc1noc2ncnc(N3CCC(C)CC3)c12 returned Choline anaer gr inactive and Choline anaer gr early 1.13.
For O=S(=O)(c1cc(-c2noc(C3CCCC3)n2)cs1)N1CCCC1 the results were Choline anaer gr inactive and Choline anaer gr early -0.33.
Screening Cc1cc(C)n2nc(CN(c3ccccc3)S(C)(=O)=O)nc2n1 returned Choline anaer gr inactive and Choline anaer gr early -0.71.
COc1nccn(Cc2ccc(Cl)cc2)c1=O was read as Choline anaer gr inactive and Choline anaer gr early -0.73.
`NS(=O)(=O)c1ccc(NC(=O)c2nc(N3CCOCC3)c3oc4ccccc4c3n2)cc1` gave Choline anaer gr inactive and Choline anaer gr early 1.08.
For O=C(Cn1c(=O)c2ccccc2n2c(=S)sc(-c3ccccc3F)c12)N1CCCC1 the results were Choline anaer gr inactive and Choline anaer gr early 0.12.
Screening COc1ccc(NC(=O)c2ccnc(N3CCOCC3)c2)cc1 returned Choline anaer gr inactive and Choline anaer gr early -0.62.
Screening COc1ccc(C(=O)N2CC(OCc3ccc(F)cc3Cl)C2)cc1OC returned Choline anaer gr inactive and Choline anaer gr early 1.19.
O=S(=O)(c1ccc2c(c1)CCCC2)N1CCCC(c2nc(-c3ccc4c(c3)OCO4)no2)C1 (stereo not given) was read as Choline anaer gr inactive and Choline anaer gr early 1.9.
Screening Cc1cccc(S(=O)(=O)N2CCN(c3cc(N4CCN(C)CC4)nc(C)n3)CC2)c1 returned Choline anaer gr inactive and Choline anaer gr early 0.53.
Screening CC(C)CCNC(=O)CCCCn1c(=O)c2ccccc2n(CC(=O)NCc2ccccc2)c1=O returned Choline anaer gr inactive and Choline anaer gr early 0.51.
Cc1ccc(NC(=O)N2CCCC(c3nnc(C(=O)Nc4ccc(F)cc4)s3)C2)cc1Cl (stereo not given) was read as Choline anaer gr inactive and Choline anaer gr early 1.92.
`CC1CCN(c2cc(C(=O)O)c3cc(N)ccc3n2)CC1` gave Choline anaer gr inactive and Choline anaer gr early 0.98.
O=C(c1ccc(CN2C(=O)CCn3nc(-c4cccc(Cl)c4)cc32)cc1)N1CCCCC1 was read as Choline anaer gr inactive and Choline anaer gr early -0.26.
`C=Cc1ccc(Cn2c(=O)c3cnc(-c4cccnc4)nc3n(C)c2=O)cc1` gave Choline anaer gr inactive and Choline anaer gr early -0.02.
Screening CCOc1ccc(Nc2ccc(-c3ccc(C)c(S(=O)(=O)N4CCCC4)c3)nn2)cc1 returned Choline anaer gr inactive and Choline anaer gr early 2.14.
For CCC(CC)C(=O)N1CCc2c(c(C(=O)NCc3ccccc3)nn2C)C1 the results were Choline anaer gr inactive and Choline anaer gr early 0.27.
COC(=O)c1ccccc1NC(=O)C1=Cc2cc(C)ccc2OC=C1 was read as Choline anaer gr inactive and Choline anaer gr early -0.25.

Of the compounds above, 2 have a furan ring, fused or not:
`O=C(CSc1nnc(-c2cc3ccccc3o2)n1-c1ccccc1)Nc1ccccc1O` gave Choline anaer gr inactive and Choline anaer gr early -0.86.
`NS(=O)(=O)c1ccc(NC(=O)c2nc(N3CCOCC3)c3oc4ccccc4c3n2)cc1` gave Choline anaer gr inactive and Choline anaer gr early 1.08.

More results
Screening O=C(CSc1ccccc1)N1CCc2c([nH]c3ccccc23)C1c1ccccc1 (stereo not given) returned Choline anaer gr inactive and Choline anaer gr early 1.4.
`CCOc1ccc(NC(=O)c2ccc(S(=O)(=O)c3ccccc3)nc2)cc1` gave Choline anaer gr inactive and Choline anaer gr early -0.26.
For CCCCn1nc2c(S(=O)(=O)N3CCN(c4ccc(F)cc4)CC3)cccn2c1=O the results were Choline anaer gr inactive and Choline anaer gr early 1.23.
For CN(C)C(=O)CN1CCN(c2cc(C(=O)O)c3cc(NC(=O)c4ccccc4Cl)ccc3n2)CC1 the results were Choline anaer gr inactive and Choline anaer gr early 0.08.
Clc1ccc(-c2noc(CN3CCOCC3)n2)cc1 was read as Choline anaer gr inactive and Choline anaer gr early 0.41.
`COc1ccc(NC(=O)NCCn2c(C(F)(F)F)nc3cccnc32)cc1OC` gave Choline anaer gr inactive and Choline anaer gr early -0.41.
For O=C(Cn1nc(-c2ccc(F)cc2)c2cnc3cc4c(cc3c21)OCCO4)NC1CCCC1 the results were Choline anaer gr inactive and Choline anaer gr early -1.16.
`CCOC(=O)c1noc2ncn(CC(=O)Nc3ccc(F)cc3)c(=O)c12` gave Choline anaer gr inactive and Choline anaer gr early 0.38.
Screening Cc1cccc(CN2CCCn3nc(C(=O)NC4CCS(=O)(=O)C4)cc3C2=O)c1 (stereo not given) returned Choline anaer gr inactive and Choline anaer gr early -0.59.
CCCn1c(SCc2nc(-c3ccc(C)cc3)no2)nc2cc3c(cc2c1=O)OCO3 was read as Choline anaer gr inactive and Choline anaer gr early -0.14.
For COC(=O)c1ccc2c(c1)N(Cc1cc(C)ccc1C)C(=O)CS2 the results were Choline anaer gr inactive and Choline anaer gr early 1.54.
For Cc1ccc(-c2csc(-c3cc4c([nH]c3=O)CC(c3ccccc3)CC4=O)n2)cc1 (stereo not given) the results were Choline anaer gr inactive and Choline anaer gr early 0.39.
For O=C(NCCCN1CCCC1)c1ccc(Cn2c(SCc3ccc(F)cc3)nc3cccnc32)cc1 the results were Choline anaer gr inactive and Choline anaer gr early 1.18.
`Cc1cccc(C(=O)Nc2ccc(N3CCCC3)c(NC(=O)Nc3cccc(Cl)c3)c2)c1` gave Choline anaer gr inactive and Choline anaer gr early 1.33.
`Cc1noc(C)c1S(=O)(=O)N(c1ccc(Br)cc1F)S(=O)(=O)c1c(C)noc1C` gave Choline anaer gr inactive and Choline anaer gr early -2.35.
`Cc1nc2nc3c(c(Nc4cccc(F)c4)n2n1)CCC3` gave Choline anaer gr inactive and Choline anaer gr early 0.36.
For CC1CCN(c2ccc(NC(=O)CCS(=O)(=O)c3ccc4c(c3)CC(=O)N4C)cc2)CC1 the results were Choline anaer gr inactive and Choline anaer gr early 0.27.
CNC(=O)Nc1ccc(C2(C(=O)NC(C)c3ccc(C)cc3C)CCC2)cc1 (stereo not given) was read as Choline anaer gr inactive and Choline anaer gr early -0.19.
Screening Cc1cc(-c2csc(S(=O)(=O)N3CCN(CCOc4ccc(Cl)cc4)CC3)c2)on1 returned Choline anaer gr inactive and Choline anaer gr early 1.11.
`Cc1ccc(C2=NN(CC(=O)N3CCC(Cc4ccccc4)CC3)C(=O)CC2)cc1` gave Choline anaer gr inactive and Choline anaer gr early 0.38.
Screening CCc1cccc(C)c1-n1nnnc1C(C)(C)N(C)C returned Choline anaer gr inactive and Choline anaer gr early -0.86.
O=C(CCCn1c(=O)[nH]c2ccsc2c1=O)N1CCN(Cc2ccc3c(c2)OCO3)CC1 was read as Choline anaer gr inactive and Choline anaer gr early -0.97.
For CC(=O)N1CCC2(CC1)OC(=O)C(C)=C2C(=O)Nc1ccc(C)c(Cl)c1 the results were Choline anaer gr inactive and Choline anaer gr early 0.1.
For CCCNC(=O)N1CCCC1c1cc(C)no1 (stereo not given) the results were Choline anaer gr inactive and Choline anaer gr early 0.
For COc1ccc(C(=O)CSc2nnnn2C2CCCCC2)cc1OC the results were Choline anaer gr inactive and Choline anaer gr early 1.79.
Screening CC#CCOC(=O)c1c(C)nc2sc3c(c2c1N)CCC(O)C3 (stereo not given) returned Choline anaer gr inactive and Choline anaer gr early 0.88&1.62.
`CC(=O)OCC(=O)[C@@]1(OC(C)=O)[C@@H](C)C[C@H]2[C@@H]3C[C@H](F)C4=CC(=O)C=C[C@]4(C)[C@@]3(F)[C@@H](O)C[C@@]21C` gave Choline anaer gr inactive and Choline anaer gr early 0.39.
COc1cc(N2CCn3c(nc4cc(Cl)ccc43)C2)ccc1NC(=O)Nc1ccccc1 was read as Choline anaer gr inactive and Choline anaer gr early -2.03.
COCCCNC(=O)c1ccc(N2CCCN(Cc3ccccc3C)C2=O)cc1 was read as Choline anaer gr inactive and Choline anaer gr early 0.47.
`COc1cc(NC(=O)N2CCCC2c2cc(C(C)C)on2)cc(OC)c1OC` (stereo not given) gave Choline anaer gr inactive and Choline anaer gr early -0.83.
Screening COc1ccc(-c2noc(CSc3ccc(-c4ccccc4)nn3)n2)cc1OC returned Choline anaer gr inactive and Choline anaer gr early -0.49.
Screening CCCc1nnc(NC(=O)c2cc(=O)c3cccc(C)c3o2)s1 returned Choline anaer gr inactive and Choline anaer gr early -1.57.
`CC(C)NC(=O)N1CCCN(S(=O)(=O)C(C)C)CC1` gave Choline anaer gr inactive and Choline anaer gr early 0.69.
Screening Cc1cc(C)cc(OC(=O)c2cc(-c3ccc4c(c3)OCCO4)on2)c1 returned Choline anaer gr inactive and Choline anaer gr early 1.49.
Screening CCc1ccc(NC(=O)NCc2nc(-c3ccc(C)cc3)oc2C)cc1 returned Choline anaer gr inactive and Choline anaer gr early 0.69.
`COC(=O)c1ccc2c(=O)n(-c3cc(C)cc(C)c3)c(N3CCOCC3)nc2c1` gave Choline anaer gr inactive and Choline anaer gr early -1.44.
`COc1cccc(CNC(=O)c2ccc3cnn(Cc4cccc(Cl)c4)c3c2)c1OC` gave Choline anaer gr inactive and Choline anaer gr early 0.39.
Screening CCCC(=O)C1=C(c2ccc(OCC)cc2)N(C(=O)CCC)n2c(CC)nnc2S1 returned Choline anaer gr inactive and Choline anaer gr early 0.86.
Screening C#CCNC1CCc2ccccc21 (stereo not given) returned Choline anaer gr inactive and Choline anaer gr early 0.31.
Screening O=C(NCCN1CCCC1)c1ccc2nc(-c3ccc(F)cc3)c(-c3ccc(F)cc3)nc2c1 returned Choline anaer gr inactive and Choline anaer gr early -0.88.
`CNC(=O)N1CCCC(c2cccc(C(=O)N3CCC(C)CC3)c2)C1` (stereo not given) gave Choline anaer gr inactive and Choline anaer gr early -0.45.
`Cc1cc(C2CCCN2S(C)(=O)=O)on1` (stereo not given) gave Choline anaer gr inactive and Choline anaer gr early 0.04.
For NC[C@H]1O[C@@H](n2cnc3c(N)ncnc32)[C@H](O)[C@@H]1O the results were Choline anaer gr inactive and Choline anaer gr early -0.27.
CCOC(=O)c1n[nH]c2c1CCCC2 was read as Choline anaer gr inactive and Choline anaer gr early -2.04.
For COc1cc(OC)cc(-c2nc(-c3ccc4c(c3)[nH]c(=O)n4C)no2)c1 the results were Choline anaer gr inactive and Choline anaer gr early -0.19.
`Nc1cc(-c2cccc(Cl)c2)[nH]n1` gave Choline anaer gr inactive and Choline anaer gr early -1.74.
`CC(=O)Nc1ccc(NC(=S)NC(=O)c2ccc(C(C)(C)C)cc2)cc1` gave Choline anaer gr inactive and Choline anaer gr early 0.17.

2 neighbouring entries out of the list so far, quoted:
`Nc1cc(-c2cccc(Cl)c2)[nH]n1` gave Choline anaer gr inactive and Choline anaer gr early -1.74.
`CC(=O)Nc1ccc(NC(=S)NC(=O)c2ccc(C(C)(C)C)cc2)cc1` gave Choline anaer gr inactive and Choline anaer gr early 0.17.

A portion of the library; rates above refer to the full screens.
